Mtb hypoxia rep – reduces hypoxia-regulated biosensor signal in M. tuberculosis | 300,000 tested, 0.1% active | AID 1159583 | M. tuberculosis hypoxia-regulated fluorescent reporter, fluorescence | fluorescence inhibition, % (test concentration not listed);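 active = 35 to 45% if threefold the growth effect, above 45% if 1.5-fold the growth effect; inactive = the rest, general growth blockers included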;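 note: wells of about 50 µL received 100 nL stock; 0% = vehicle wells and 100% = reference inhibitor wells; whole bacteria with a GFP reporter of the hypoxia response; strong numbers were not always called active; many hits fall short of the cut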
RN4220 kill – S. aureus RN4220 growth inhibition; 330,000 tested, 0.33% active; OD600, 16 h; inhibition, % (test concentration not listed);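 active = z-score of -3 or lower and OD600 up to 0.18 on both plates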;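 note: plate controls were untreated cells for no effect and reference antibiotic for full effect; stock transfer was 100 nL into about 80 µL; one replicate is shown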
ugtP null kill – growth inhibition of S. aureus ugtP deletion strain | S. aureus RN4220 ugtP deletion, OD600 growth, 16 h; some inactives read as strong as hits | growth inhibition, % (concentration not given with the values) | 330,000 tested, 0.54% active | AID 1259309;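 active = z-score under -3 and OD600 up to 0.15 on both plates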;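 note: plate controls were untreated wells for no effect and antibiotic for full effect; wells of about 80 µL received 100 nL stock; the first replicate is given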
PrP UTR inh – inhibition of PrP 5' UTR reporter expression | inhibition, % (concentration not given with the values) | cell-based PrP 5' UTR mRNA reporter, plate reader | 340,000 tested, 0.35% active | AID 488862;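 active = every replicate at 50% or more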;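 note: 0 = median of the neutral control wells; tested in H4 reporter cells; numbers are from one replicate; inactives centre near -14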
BJeLR viability – BJeLR cell viability loss; BJeLR (HRASV12) viability, CellTiter-Glo ATP luminescence, 48 h; reference of the scale not given here; inhibition, % (concentration not given with the values); 300,000 tested, 0.17% active;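 active = replicate mean above 50%; inconclusive = above 50% but judged a plate artefact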;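 note: 50 nL library stock added to about 25 µL; numbers are from one replicate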
Autofluor counter – counter-screen for toxin protease inhibitors: compound fluorescence; compound autofluorescence counterscreen, microsphere flow cytometry; hits give high values; fluorescence intensity (test concentration not listed); 360,000 tested, 3.1% active; AID 624483;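 active = at least 3 SD above the mean of all compounds, about 16000 in these data; inconclusive = too few beads counted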;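 note: 100 nL of 1 mM stock went into each well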
Mtb hypoxia rep growth – recorded beside Mtb hypoxia rep, whose call it bears; growth inhibition, %; measured here: M. tuberculosis growth (absorbance);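 0% = vehicle and 100% = reference antibiotic; read after six days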
Active calls of the source: *; ? = inconclusive; · = no result given.

Values in the order: PrP UTR inh	Autofluor counter	BJeLR viability	Mtb hypoxia rep	ugtP null kill	RN4220 kill	Mtb hypoxia rep growth
> Cc1nn(Cc2ccccc2Cl)c(C)c1NC(=O)Cn1nc([N+](=O)[O-])c(Cl)c1C
→ -3	4902	3	·	3	-1.8	·
> CC(=O)Nc1ccc(S(=O)(=O)NNC(=O)c2ccc(C)cc2)cc1
→ -22	3326	-8	7	4	5.5	4
> CC(C)(C)OC(=O)NCCCCCC(=O)N/N=C/c1coc2ccccc2c1=O
→ -20	3981	1	·	·	·	·
> CN(C)CCCN(C(=O)c1ccc(S(=O)(=O)N2CCc3ccccc32)cc1)c1nc2c(Cl)cccc2s1
→ -10	4691	3	-4	-28	0.7	-4
> CNC(=O)C(=O)Nc1c(C)cc(C)cc1C
→ -15	2178	6	-9	1	-2.7	-2
> COc1ccc(C(=O)NNC(=O)C(=O)NC2CCCCC2)cc1
→ -21	3531	6	-5	11	0.2	-3
> CC1=CSC(=C(C#N)C(=O)N2CCOCC2)N1c1ccccc1
→ ·	·	·	0	3	2.2	7
> CC(C)[C@H](NC(=O)N1CCn2c1nc1ccccc12)C(=O)NCCc1ccccc1
→ -16	5692	1	3	-5	0.5	14
> Cc1cc2sc3nc(=O)n(-c4ccccc4)c(=O)n3c2cc1C
→ -132	3643	4	16	-4	2.0	13
> c1csc(-c2csc3nc(CN4CCOCC4)nc(NCc4ccc5c(c4)OCO5)c23)c1
→ -10	4584	-1	0	6	4.0	11
> CC(=NN=C(N)SC1CC(=O)N(c2ccc(Br)cc2)C1=O)c1cccs1 (stereo unspecified)
→ ·	·	·	8	20	80	0
> COc1ccc(NC(=O)Nc2nc3ccccc3s2)cc1
→ -89	4351	-17	8	-22	-4.0	12
> O=C(O)c1ccc(NC(=O)c2cn(-c3ccccc3)nc2-c2ccccc2)cc1
→ -26	4539	0	2	16	6.8	-4
> CSc1ccc(CCNC(=O)c2ccc(CS(=O)Cc3ccc(Cl)cc3)o2)cc1 (stereo unspecified)
→ -25	5511	8	5	53	-1.5	17
> COC(CNC(=O)c1cc(-c2ccncc2)nc2ccc(S(=O)(=O)N3CCOCC3)cc12)OC
→ -16	4510	3	7	20	7.7	-2
> O=C(COC(=O)C1CC1)Nc1ccc(S(=O)(=O)N2CCOCC2)cc1
→ -7	3971	·	5	-4	1.3	12
> Fc1ccc(Br)cc1C1C=C(c2ccc(Br)s2)Nc2ncnn21 (stereo unspecified)
→ -55	2628	0	-2	-11	-1.5	1
> COc1ccc(/C=N/NC(=O)c2c(C)nnn2-c2nonc2N)cc1OC
→ 26	4292	-8	·	·	·	·
> O=C(NCCCn1ccnc1)/C(=C\c1ccc(Br)cc1)NC(=O)c1ccccc1
→ -4	5431	6	5	4	1.9	1
> Cn1c(=O)c2c(ncn2CC(=O)Nc2cccc(S(=O)(=O)Nc3ccccc3F)c2)n(C)c1=O
→ -17	5099	3	5	23	2.0	10
> Nc1ccc(C=C2C=Cc3ccccc32)cc1
→ -6	4025	·	14	27	24	12
> CCn1c(=O)c2sccc2n2c(CCCC(=O)NC3CCN(Cc4ccccc4)CC3)nnc12
→ -14	5101	-11	8	5	4.1	3
> CC(C)C(NC(=O)c1ccccc1F)C(=O)NCCc1ccccn1 (stereo unspecified)
→ -24	4663	·	-1	2	5.4	-1
> CCOC(=O)c1ccccc1OC(=O)CS(=O)c1ccccc1[N+](=O)[O-] (stereo unspecified)
→ -13	4559	-3	4	-4	3.7	5
> O=C(NCCc1ccccc1)C1=CCN(S(=O)(=O)c2ccccc2)CC1
→ -1	4727	-1	2	9	2.4	-1
> COc1cc(OC)c(C(=O)OCC(=O)NC23CC4CC(CC(C4)C2)C3)cc1OC
→ -3	8908	·	-6	-3	-0.6	7
> COc1ccc(-n2c(N)cc(=O)[nH]c2=O)cc1
→ ·	·	0	12	8	4.3	-4
> Cc1ccc(C)c(NC(=O)C(c2ccccc2)N2CCN(CC(=O)N3CCOCC3)CC2)c1 (stereo unspecified)
→ -22	2927	·	-1	1	-1.7	3
> N#CCCN(C(=O)CN1CCN(S(=O)(=O)c2ccc3c(c2)OCCO3)CC1)c1ccc(F)cc1
→ -5	3090	·	5	3	-0.7	-1
> COc1ccc(NS(=O)(=O)c2cc(NC(=O)c3ccc(=O)[nH]c3)ccc2N2CCCC2)cc1
→ -27	6561	31	6	-3	2.0	5

Overlap with the part before: four compounds, then new ones.
Values in the order: PrP UTR inh	Autofluor counter	BJeLR viability	Mtb hypoxia rep	ugtP null kill	RN4220 kill	Mtb hypoxia rep growth
> COc1ccc(-n2c(N)cc(=O)[nH]c2=O)cc1
→ ·	·	0	12	8	4.3	-4
> Cc1ccc(C)c(NC(=O)C(c2ccccc2)N2CCN(CC(=O)N3CCOCC3)CC2)c1 (stereo unspecified)
→ -22	2927	·	-1	1	-1.7	3
> N#CCCN(C(=O)CN1CCN(S(=O)(=O)c2ccc3c(c2)OCCO3)CC1)c1ccc(F)cc1
→ -5	3090	·	5	3	-0.7	-1
> COc1ccc(NS(=O)(=O)c2cc(NC(=O)c3ccc(=O)[nH]c3)ccc2N2CCCC2)cc1
→ -27	6561	31	6	-3	2.0	5
> COc1ccccc1N1CCN(C(=O)Cc2c(C(=O)O)[nH]c3ccc(Cl)cc23)CC1
→ 2	4888	-9	8	8	1.9	9
> C[C@H]1CCC(=O)N([C@H](COc2ccccc2)Cc2ccccc2)CC1
→ -29	2930	11	·	·	·	·
> Cc1ccccc1CC(=O)N1CCN(S(=O)(=O)c2ccc(Cl)s2)CC1
→ -14	2750	·	11	4	4.6	8
> CC1CCCN(c2ccc(C(=O)N3CCC4(CC3)OCCO4)cc2[N+](=O)[O-])C1 (stereo unspecified)
→ -12	4566	-8	·	·	·	·
> Cn1nnc2cc(C(=O)NC(C)(C)C)ccc21
→ -11	3783	-9	2	2	0.1	5
> Cc1ccc(NS(=O)(=O)c2cccc(C(=O)NCCCN3CCOCC3)c2)cc1
→ -1	?	6	-2	5	-0.4	-4
> O=C(c1cccs1)N(CC1CCCO1)c1nc(-c2ccccc2)cs1 (stereo unspecified)
→ -9	23325*	-4	5	67	-5.7	9
> C=CCNc1nnc(SCC(=O)N2CCCCC2)c2ccccc12
→ -5	9805	-9	-5	-1	2.1	-1
> CC1C(=O)NC(=O)C1c1ccccc1 (stereo unspecified)
→ -5	5802	-11	13	0	1.0	15
> NC(=O)c1cccc2ccccc12
→ ·	4543	7	-3	3	1.7	-1
> Cc1cccc2c3c([nH]c12)C(=O)CC(C)(C)S3
→ -31	4714	0	1	2	1.5	1
> O=C(CC1NCCc2ccccc21)Nc1ccc(Cl)cc1 (stereo unspecified)
→ -6	4383	-2	0	3	0.3	-4
> O=C(Nc1ccccc1)C1CC2CCC1C2 (stereo unspecified)
→ -26	4190	4	6	10	5.2	-4
> Cc1ccc(NC(=O)CS(=O)CC(=O)N(CC(=O)NC2CCCC2)c2cc(C)ccc2C)cc1 (stereo unspecified)
→ -16	9173	16	11	7	6.2	-1
> O=C1CCN(S(=O)(=O)c2ccccc2)CCN1CCOCc1ccc(F)cc1
→ -15	4056	-8	1	12	8.0	1
> COc1cccc(-c2nc(C(N)=O)c3[nH]c(=O)n(-c4ccccc4)c3n2)c1OC
→ -7	5491	3	8	12	1.4	4
> CC(C)(C)c1ccc(C(=O)CSc2ncn[nH]2)cc1
→ -62	10220	1	-6	-2	4.0	0
> COc1cccc(C(=O)NC2CCCc3c2cnn3-c2cc(C)cc(C)c2)c1 (stereo unspecified)
→ 10	4786	6	1	11	5.7	-2
> O=c1cccc2n1CC1CC2CN(c2ncnc3c2cnn3-c2ccc(Cl)cc2)C1 (stereo unspecified)
→ 3	3091	7	·	7	0.5	·
> O=C(c1ccco1)c1cn(CC(=O)N2CCCCC2)c2ccccc12
→ -18	9749	1	1	1	5.6	6
> O=C(c1ccco1)N1CCN(Cc2cc(=O)c(OCc3ccccc3F)co2)CC1
→ -43	?	1	6	4	2.7	-3
> O=C(c1ccncc1)N1CCN(S(=O)(=O)c2cc(C(F)(F)F)cc(C(F)(F)F)c2)CC1
→ 4	6820	-3	5	81	77	5
> O=c1cc(NC2CCCCC2)c2ccccc2o1
→ -6	9741	3	-4	-14	3.2	-5
> O=C(Nc1ccccc1F)C1CCCN1S(=O)(=O)c1cccc2nsnc12 (stereo unspecified)
→ -22	5556	-3	15	0	2.5	4
> Cc1ccc(C2NC(=O)c3ccccc3O2)cc1 (stereo unspecified)
→ -11	3749	-4	7	-2	3.1	-1
> Cc1ccc(N2CCN(N=CC3=C(N4CCOCC4)/C(=C\c4ccccc4)CC3)CC2)cc1
→ ·	·	·	12	4	9.5	7
> Cc1[nH][nH]c(=O)c1N=Nc1ccccc1C#N
→ ·	·	0	6	8	13	11
> CC(=O)c1cccc(NC(=O)COc2cc3oc(=O)c(CC(C)O)c(C)c3cc2Cl)c1 (stereo unspecified)
→ -17	1940	-2	·	·	·	·
> COc1ccc(NC(=O)CSCC(=O)N2c3ccccc3CCc3ccccc32)cc1
→ -15	2625	-6	-1	3	-1.2	-15
> Cc1cccnc1NC(=O)C(C)N1C(=O)c2ccccc2C1=O (stereo unspecified)
→ -23	3850	-3	0	5	1.7	0
> Cc1nc2ncnn2c(C)c1Cc1cccc(F)c1
→ -8	4861	-4	16	8	8.5	1
> CCOC(=O)CSc1nnc(-c2cccc(Br)c2)o1
→ -10	3052	-11	10	1	12	7
> COC(=O)CNC(=O)COC(=O)c1cc(F)c(F)cc1Cl
→ -14	4348	2	18	2	2.7	18
> CCOc1ccccc1NC(=O)NCc1ccc(F)cc1
→ -12	2465	-5	1	-7	-3.5	9
> CC1CCCCC1NC(=O)CNC(=S)N1CC2CC(C1)c1cccc(=O)n1C2 (stereo unspecified)
→ -4	6259	5	9	2	1.5	3
> O=C(Cc1cccs1)NCc1ccccc1
→ -67	8097	3	25	5	1.4	25
> Cc1ccc(CN2CCNC(=O)C2CC(=O)N(C)CCc2cnn(C)c2)cc1 (stereo unspecified)
→ -18	?	-10	13	2	1.4	1
> Cc1sc2nc3c(C(=O)N4CCCC4)cc(C(=O)c4ccccc4O)cn3c(=O)c2c1C
→ -30	3976	-27	7	9	-24	6
> O=C(Cn1cccc1C(=O)c1ccccc1)NCc1ccccc1
→ 5	9262	-16	7	6	-1.5	0
> Cc1nc(-c2coc3cc(C)c(N=O)c(O)c3c2=NN)cs1
→ ·	·	·	6	-1	1.2	3
> CCC(=O)Nc1ccc2nc(C)n(CC(=O)Nc3ccccc3)c(=O)c2c1
→ 10	12051	-2	-6	-3	-1.3	8
> O=C(NN=Cc1ccccc1F)c1csc2c1CCCC2
→ ·	·	·	-2	-4	0.3	8
> CC(C)NC(=O)c1cnc(Sc2ncc(C(F)(F)F)cc2Cl)n1C
→ -7	2671	-1	4	-4	-3.4	4
> COc1ccc(C(=O)COC(=O)c2ccc3c(c2)NC(=O)CS3)c(OC)c1
→ -14	?	-7	1	-1	2.1	-3
> O=C(CN1C(=O)c2ccccc2S1(=O)=O)NC1CCCC1
→ -11	11014	-9	4	13	5.1	-5
> CC(C)CC(NC(=O)CNC(=O)C1O[C@@H]2OC(C)(C)O[C@@H]2[C@H]2OC(C)(C)O[C@@H]12)C(=O)O (stereo partly specified)
→ -2	2179	2	14	3	2.6	5
> COc1ccccc1NC(=O)CSc1nnc(C2CCCCC2)n1N
→ -12	5025	2	9	5	-0.1	-7
> CCCC(=O)Nc1nc2c(C)c(Cl)ccc2s1
→ -15	4708	6	-5	18	5.7	1
> CCN(CCCNC(=O)CCn1c(=S)[nH]c2cc3c(cc2c1=O)OCO3)c1cccc(C)c1
→ -24	6259	-4	8	2	3.7	1
> CCn1cc(-c2cc(C(=O)O)c3ccccc3n2)cn1
→ 7	4552	7	10	-3	5.7	-2
> O=C(/C=C/c1cccc(Br)c1)N1CCN(c2cccc(C(F)(F)F)c2)CC1
→ 6	2097	5	6	-13	8.2	5
> Cn1ccnc1-c1ccc(-c2nccn2C)cc1
→ -7	4179	-1	10	3	1.9	-2
> Cc1ccc(CNC(=O)C2CCC(CNc3c(N4CCC(C)CC4)c(=O)c3=O)CC2)cc1 (stereo unspecified)
→ -9	4570	15	-1	7	2.5	8
> CCC(CC)NC(=O)Nc1ccc(F)c(Cl)c1
→ -5	2094	12	-6	-7	-0.6	2
> CCCOc1ccc(C2C(=O)N(C3CCCCC3)CC(=O)N2C2CC2)cc1OC (stereo unspecified)
→ -19	20615*	-3	1	-1	0.1	4

Screening results from PubChem BioAssay.
